PV pol inh: poliovirus RdRp elongation inhibitors, primary screen, biochemical, fluorescence polarization, total intensity | Genome polyprotein (Poliovirus type 1 (strain Mahoney)), P03300 | AID 588519, 2011 | poliovirus polymerase elongation; stronger effect = lower value | % elongation, % (compound at 16.7 µg/mL) | 150,000 compounds, 0.66% hits; in the data active = % elongation below about 90%; also: some results filed as inactive read as strong as hits
Target sequence (P03300 1749-2209 limits assumed): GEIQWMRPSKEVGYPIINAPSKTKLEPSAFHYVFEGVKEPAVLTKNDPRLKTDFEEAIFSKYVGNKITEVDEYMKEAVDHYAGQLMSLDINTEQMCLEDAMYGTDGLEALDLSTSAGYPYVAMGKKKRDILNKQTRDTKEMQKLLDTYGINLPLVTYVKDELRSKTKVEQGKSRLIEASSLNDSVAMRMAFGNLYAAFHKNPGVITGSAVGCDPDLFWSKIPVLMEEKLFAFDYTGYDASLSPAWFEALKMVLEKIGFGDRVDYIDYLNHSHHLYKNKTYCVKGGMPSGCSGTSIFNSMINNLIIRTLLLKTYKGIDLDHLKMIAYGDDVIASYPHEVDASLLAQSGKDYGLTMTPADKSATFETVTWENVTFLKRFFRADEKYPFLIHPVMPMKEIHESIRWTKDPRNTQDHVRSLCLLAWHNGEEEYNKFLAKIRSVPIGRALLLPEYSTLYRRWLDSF
Mtb MenB inh: M. tuberculosis MenB inhibitors, primary screen, biochemical, absorbance; AID 540299, 2011; MenB enzyme assay, absorbance read-out; some hits fall short of the stated cut; 100,000 compounds, 0.43% hits; inhibition, %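 (about 12 µg/mL by stock and volumes)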;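 active = mean of two replicates above 30%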;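 also: 0% = no compound and 100% = wells with inactive enzyme; the first replicate is given; strong numbers were not always called active; inactives centre near -10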
Target sequence (P9WNP5 whole entry, looked up): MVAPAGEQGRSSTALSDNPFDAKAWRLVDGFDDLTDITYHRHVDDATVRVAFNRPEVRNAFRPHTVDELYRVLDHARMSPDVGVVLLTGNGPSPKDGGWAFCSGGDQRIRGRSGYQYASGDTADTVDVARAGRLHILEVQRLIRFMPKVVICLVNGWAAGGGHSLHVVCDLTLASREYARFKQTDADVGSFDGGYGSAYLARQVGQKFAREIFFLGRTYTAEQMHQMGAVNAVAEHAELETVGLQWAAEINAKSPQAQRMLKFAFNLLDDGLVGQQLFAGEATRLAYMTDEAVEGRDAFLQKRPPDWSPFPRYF
Mtb MbtI inh: MbtI salicylate synthase inhibitors, primary screen, biochemical, fluorescence intensity; P9WFX0; purified MbtI enzyme, fluorescence intensity read-out; inhibition, %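 (about 17 µg/mL by stock and volumes)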; 100,000 compounds, 0.89% hits; AID 493033, 2011;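 active = above 50% in both replicates, above 80% if mildly self-fluorescent; inactive = the rest, strongly fluorescent compounds included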;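 also: 0% = mean of negative and 100% = mean of positive controls; one replicate is shown; some compounds called inactive have numbers as strong as hits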
PV pol inh intensity: also measured in PV pol inh; calls as there; % elongation; measured here: total intensity read-out; formula for this scale not given here;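 total fluorescence in place of polarization; lower means less elongation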
Numbers without * were called inactive; i = inactive; . = no result given; & = joins results of further samples.

SMILES | PV pol inh | PV pol inh intensity | Mtb MenB inh | Mtb MbtI inh
Cc1ccc(S(=O)(=O)NC(=O)NC2CCCc3ccccc32)cc1 (stereo not given) | 106 | 119 | 12 | -4
O=C1C=C(c2ccccc2)C(=O)c2ccccc21 | 102 | 103 | -72 | 47
O=C(O)c1ccccc1Nc1ccnc(N2CCCCC2)n1 | 99 | 104 | -10 | -113
O=C(N/N=C/c1c(Cl)nc2ccccn12)c1ccncc1 | 97 | 86 | -3 | -6
NC(=O)Cn1c(=O)c2ccccc2n(CC(N)=O)c1=O | 102 | 111 | -16 | .
CCOC(=O)CSc1nc2cc(C(=O)OC)ccc2c(=O)n1CCc1ccc(S(N)(=O)=O)cc1 | 102 | 101 | -10 | 60
COc1ccc(C(=O)Nc2nonc2NC(=O)c2ccc(OC)cc2)cc1 | 103 | 105 | -4 | -15
O=C(c1cc2ccccc2o1)N(C1CC1)C1CCS(=O)(=O)C1 (stereo not given) | 101 | 94 | -23 | 5
O=C(CN1CCc2ccccc21)Nc1cccc(C(F)(F)F)c1 | 105 | 99 | -42 | -12
Cc1oc(-c2ccccc2)nc1CS(=O)CC(=O)O (stereo not given) | 99 | 100 | -24 | 15
O=c1[nH]c(SCc2ccccc2)nc(O)c1Cc1ccccc1 | 100 | 103 | -18 | 0
Cc1ccc2c(c1)N(C(=O)CCC(=O)NCc1ccco1)CCO2 | 102 | 103 | -17 | -11
Cc1ccc(S(=O)(=O)N2C(=O)CCC2C(=O)NCc2nc(-c3ccccc3)no2)cc1 (stereo not given) | 103 | 106 | -4 | -6
CCc1nc(=O)c(-c2ccccc2)c(C)n1-c1ccccc1 | 104 | 107 | . | -7
COC(=O)c1cccc(OC(N)=O)c1 | 103 | 103 | -33 | -5

In another format: results already given
Below each SMILES: PV pol inh	PV pol inh intensity	Mtb MenB inh	Mtb MbtI inh
> O=C(O)c1ccccc1Nc1ccnc(N2CCCCC2)n1
→ 99	104	-10	-113
> O=C(c1cc2ccccc2o1)N(C1CC1)C1CCS(=O)(=O)C1 (stereo not given)
→ 101	94	-23	5
> O=C(CN1CCc2ccccc21)Nc1cccc(C(F)(F)F)c1
→ 105	99	-42	-12

The list continues.
SMILES | PV pol inh | PV pol inh intensity | Mtb MenB inh | Mtb MbtI inh
CCC1CCCCN1C(=O)CCn1ccnc1 (stereo not given) | 104 | 93 | -5 | 4
O=C(NC1CCCCC1)/C(=C\c1ccco1)NC(=O)c1ccccc1 | 101 | 101 | 8 | 10
NS(=O)(=O)c1ccc(CCNC(=O)c2cccn3c(=O)c4cc5ccccc5cc4nc23)cc1 | 103 | 100 | 7 | 7
CS(=O)(=O)c1ccc(C(=O)OCc2cn3cc(Cl)ccc3n2)cc1 | 107 | 123 | -8 | 3
Cc1[nH]c2ccccc2c1/C=N/n1cnc2sc3c(c2c1=O)CCCC3 | 98 | 95 | -40 | 7
CC(C)Sc1nnc(OC(=O)N(C)C)n1-c1cccc(C(F)(F)F)c1 | 102 | 95 | 4 | 2
CC1=CC(C)(C)c2ccccc2N1Cc1ccccc1 | 108 | 111 | -28 | .
CCN(C(=O)COc1ncnc2ccccc12)c1ccccc1 | 103 | 93 | . | 3
O=C(CSc1nc2ccccc2o1)Nc1ccc(S(=O)(=O)NC2CCCC2)cc1 | 101 | 103 | -18 | -11
CC1=NNC(=O)C1CC(=O)N/N=C/c1ccncc1 (stereo not given) | 100 | 100 | -24 | 3
O=C(Cn1nnc(-c2ccccc2)n1)OCC(=O)c1ccccc1 | 101 | 101 | -4 | 0
O=c1cc(Nc2ccc(N3CCCCC3)cc2)[nH]c(=O)[nH]1 | 101 | 107 | -4 | .
CC(C)(C)N1CC(O)C1 | 103 | 103 | . | -5
COc1cccc(C(=O)NC(=S)Nn2cnnc2)c1OC | 103 | 104 | 4 | 23
CN1C(=O)c2ccc(C(=O)NC3CCCCC3)cc2C1=O | 102 | 103 | -20 | -9
N#CC1=C(SCC(N)=O)NC(=O)CC1c1ccccc1 (stereo not given) | 102 | 101 | -7 | 10
S=C(NCCN1CCOCC1)NN(Cc1ccccc1)c1ccccc1 | 99 | 106 | -8 | 7
Cc1[nH]n(-c2nc3ccccc3s2)c(=O)c1C1OC(=O)c2ccccc21 (stereo not given) | 93 | 93 | -35 | 95*
CC1CCCCN1C(=O)CSc1nc2cc3c(cc2c(=O)n1Cc1ccc2c(c1)OCO2)OCO3 (stereo not given) | 99 | 104 | 4 | 8
CCCCCC#CCC#CCC#CCC#CCCCC(=O)O | 100&99 | 102&102 | -1 | -24
COc1nc(NCCN2CCOCC2)nc(Nc2ccc(I)cc2)n1 | 99 | 103 | 10 | -2
Cc1ccc(Cl)cc1NCN1C(=O)CNC1=S | 99 | 102 | 7 | -4
Cc1cc(C(=O)NC2CCCC2)on1 | 102 | 101 | -1 | -8
Cc1cc(C)c2c(-n3cccc3)c(C(=O)N3CCC(C)CC3)sc2n1 | 105 | 105 | -10 | -3
CCOC1Cc2ccccc2N(C(N)=O)c2ccccc21 (stereo not given) | 100 | 101 | 6 | 3
Cc1ccc(-n2ncc3c(N(C)C)ncnc32)cc1 | 102 | 99 | -10 | 1
O=C(N/N=C/c1ccncc1)C12CC3CC(CC(C3)C1)C2 | 101 | 103 | -13 | -14
O=C(O)COCC(=O)Nc1nnc(C2CC2)s1 | 107 | 111 | 7 | 0
CCOC(=O)c1c(N)sn(-c2ccccc2)c1=S | 101 | 101 | -19 | 16
COc1ccc(S(=O)(=O)N2CCCC(C(=O)N(Cc3cccs3)C3CC3)C2)cc1Cl (stereo not given) | 92 | 92 | -35 | -4

Complete entries, quoted from the list:
S=C(NCCN1CCOCC1)NN(Cc1ccccc1)c1ccccc1 is listed as PV pol inh: 99; PV pol inh intensity: 106; Mtb MenB inh: -8; Mtb MbtI inh: 7
Cc1ccc(Cl)cc1NCN1C(=O)CNC1=S is listed as PV pol inh: 99; PV pol inh intensity: 102; Mtb MenB inh: 7; Mtb MbtI inh: -4
CCOC(=O)c1c(N)sn(-c2ccccc2)c1=S is listed as PV pol inh: 101; PV pol inh intensity: 101; Mtb MenB inh: -19; Mtb MbtI inh: 16

Next results follow:
SMILES | PV pol inh | PV pol inh intensity | Mtb MenB inh | Mtb MbtI inh
O=C(CCCc1nc2ccccc2s1)NC1=NCCS1 | 101 | 109 | 5 | -2
O=S(=O)(NCc1csc(-c2cccs2)n1)c1ccc2c(c1)OCCCO2 | 106 | 107 | -10 | -12
CCN(Cc1ccccc1)c1ccc(/C=N/O)cc1 | 102 | 95 | -16 | -31
CN(C)c1ccc(C(=O)NCCc2ccccc2)cc1 | 99 | 99 | -7 | -1
CC(C)N(Cc1ccc(N(C)C)cc1)S(=O)(=O)c1cccc(C(F)(F)F)c1 | 109 | 107 | -26 | -14
Cc1ccccc1C(OCC(O)CN1CCC(C(N)=O)CC1)c1ccccc1 (stereo not given) | 104 | 110 | -3 | -9
O=C(CSc1nc2c(c(=O)n1-c1ccccc1)SCC2)N1CCCc2ccccc21 | 101 | 102 | -20 | -8
CC(NC(=O)C1CCCN(S(=O)(=O)c2ccc3c(c2)CC(C)N3C(=O)C2CC2)C1)c1ccccc1 (stereo not given) | 105 | 102 | -23 | -14
COc1ccc2[nH]cc(NC(=O)N3CCN(C)CC3)c(=O)c2c1 | 102 | 100 | -13 | 91
c1ccc2[nH]c(CSCCC3CCCCC3)nc2c1 | 107 | 106 | -45 | -12
CCOC(=O)c1c(Nc2nc3ccccc3nc2N2CCN(C)CC2)sc2c1CCCC2 | 100 | 110 | -8 | -4
CCOC(=O)c1sc2nccc(N(C)C)c2c1N=CN(C)C | 99 | 105 | -83 | -24
CC(C)(C)C(=O)NCC(=O)NC1=NCCS1 | 99 | 104 | -4 | -5
CC(=O)N/N=C/c1ccc(-c2cccc(C(=O)O)c2)o1 | 99 | 103 | -8 | -17
Cc1cc(OC(C)C(=O)Nc2sc3c(c2C(N)=O)CCCCCC3)ccc1Cl (stereo not given) | 99 | 96 | -21 | 52

The final 3 records of the section above open the next one.
SMILES | PV pol inh | PV pol inh intensity | Mtb MenB inh | Mtb MbtI inh
CC(C)(C)C(=O)NCC(=O)NC1=NCCS1 | 99 | 104 | -4 | -5
CC(=O)N/N=C/c1ccc(-c2cccc(C(=O)O)c2)o1 | 99 | 103 | -8 | -17
Cc1cc(OC(C)C(=O)Nc2sc3c(c2C(N)=O)CCCCCC3)ccc1Cl (stereo not given) | 99 | 96 | -21 | 52
Nc1nnc(SCC(=O)N2c3ccccc3Sc3ccccc32)s1 | 103 | 101 | -22 | 0
CSc1nc(NCc2ccccc2)c(C#N)c(-c2ccccc2)n1 | 103 | 101 | -36 | -14
O=C1CCCCC1C(=O)c1cccc(C(F)(F)F)c1 (stereo not given) | 101 | 101 | . | -5
COc1ccc(N2C(=O)CSC23C(=O)N2CCCc4cccc3c42)cc1 (stereo not given) | 100 | 99 | -39 | -1
COc1cc(S(=O)(=O)N2CCCCC2C)c(OC)cc1Cl (stereo not given) | 100 | 104 | 17 | 10
CCCn1c(=N)c(C(=O)NC)cc2c(=O)n3cc(C)ccc3nc21 | 101 | 103 | -100 | i
O=c1nc(SCc2ccccc2)nc2ccccn12 | 103 | 109 | -18 | -15
Brc1ccc(C=NC2CCCCC2)cc1 | 102 | 103 | -6 | 6
O=C(c1ccc(Br)o1)n1cnc2ccccc21 | 97 | 102 | -5 | 10
CCOC(=O)c1nc(NCc2cccs2)c2ccccc2n1 | 102 | 101 | -11 | -5
CN(C)C(=O)n1nc2c3c(cccc31)C(=O)c1ccccc1-2 | 101 | 92 | . | 2
CC(=O)Nc1cccc(-c2nnc(SCc3ccccc3)o2)c1 | 105 | 103 | -20 | -17
Cc1c(C(=O)N2CCCCC2)sc2nc[nH]c(=O)c12 | 110 | 108 | -6 | .
CSc1sc(C(=O)O)c(I)c1S(=O)(=O)C(C)C | 104 | 115 | 3 | -6
c1ccc2c(c1)c1ccccc1n2CCOCCN1CCCCC1 | 95 | 98 | 5 | 9
CCOC(=O)N1CCC(NC(=O)CCN2C(=O)C3C4C=CC(C4)C3C2=O)CC1 (stereo not given) | 99 | 102 | -2 | -56
COC(=O)c1ccc2c(=O)[nH]c(CSc3nnc(-c4cccs4)n3N)nc2c1 | 105 | 101 | -3 | 20
CC(=O)Oc1ccccc1C(=O)NC(C)c1ccccc1 (stereo not given) | 103 | 109 | -2 | .
CS(=O)(=O)Cc1cc(F)cc2c1OCOC2 | 104 | 112 | 2 | -10
O=C1NC(=O)N(Cc2ccccc2Cl)C(=O)/C1=C/N1CCCCC1 | 102 | 105 | -4 | -3
Cc1ccccc1CN1CCN(CCOCCO)CC1 | 100 | 98 | 5 | -2
O=C(Nc1cccnc1)c1nc2ncccn2n1 | 103 | 100 | -1 | 13
CCCc1n(CC(O)COc2ccccc2C)c2ccccc2[n+]1C (stereo not given) | 103 | 106 | -19 | -12
COc1ccc(C(C)C)cc1S(=O)(=O)N1CCCC1 | 100 | 103 | -18 | 5
CCN(CC(=O)Nc1cc(C)on1)c1cccc2ccccc12 | 102 | 93 | -9 | 141
Cc1noc(C(=O)N2CCC(Cc3ccccc3)CC2)c1Cl | 101 | 100 | -24 | 2
CN(C)CCC(=O)NN | 98 | 109 | -18 | -11
O=C(CN(c1ccc(F)cc1)S(=O)(=O)c1ccc2c(c1)OCCO2)N1CCN(Cc2ccc3c(c2)OCO3)CC1 | 101 | 104 | -7 | -10
CN1CC(=O)N(c2ccccc2)C1=S | 102 | 101 | -66 | 0
CCOC(=O)N1CCN(C(=O)CNC(=O)Cn2cnc3ccccc3c2=O)CC1 | 98 | 95 | 4 | 25
O=C1c2ccccc2S(=O)c2ccccc2S(=O)(=O)N1Cc1ccccc1 (stereo not given) | 98 | 98 | 6 | 2
CN1C(=O)S/C(=C\c2ccc(-c3ccc(C(=O)O)c(Cl)c3)o2)C1=O | 101 | 103 | -72 | 17
O=C(Cn1nnc2ccccc21)N/N=C1\CC(c2ccccc2)Oc2ccccc21 (stereo not given) | 103 | 111 | -11 | -21
N/C(=N\C(=S)Nc1cc(Cl)ccc1Cl)c1ccccc1 | 102 | 105 | -44 | -8
COC(=O)c1c(N)oc2c(-c3ccc(C)cc3)c3c(C(=O)OC)c(N)oc3cc12 | 101 | 102 | 7 | 101
O=C(Cn1cnc2c(nnn2-c2cccc(Cl)c2)c1=O)N1CCCc2ccccc21 | 99 | 103 | -9 | 7
CC(C)C(=O)Nc1c(C(=O)Nc2ccc3c(c2)OCO3)oc2ccccc12 | 104 | 103 | -12 | 28
CN(CCC#N)C(=O)c1cc(-c2cccs2)nc2ccccc12 | 101 | 94 | . | 88
CC1CN=C(c2cccn2Cc2ccc(F)cc2)O1 (stereo not given) | 101 | 101 | -8 | -11
COc1ccc(C2Sc3ccccc3N2S(C)(=O)=O)cc1 (stereo not given) | 103 | 103 | -6 | .
Cc1ccc(-c2nc(C(=O)N(C)c3cc(C)ccc3C)c3n2CCCCC3)cc1 | 100 | 103 | 3 | -6
CCCCn1c(CNC(=O)c2ccco2)nnc1SC(C)C(=O)Nc1sc2c(c1C(=O)OCC)CCC2 (stereo not given) | 103 | 104 | -25 | -7
CC(C)(C)CC(C)(C)NC(=O)c1ccccc1 | 100 | 102 | -9 | -8
O=C(CCC(=O)c1cccs1)Nc1ccc2c(c1)OCO2 | 101 | 94 | 12 | 8
O=C(NCc1ccccc1Cl)C(Cc1ccccc1)n1cccc1 (stereo not given) | 102 | 107 | -23 | 7
